# CtBP-E1A blk – CtBP/E1A binding inhibition; 0.49% of 340,000 active; activity change, % (concentration not given with the values); AlphaScreen GST-E1A/His-CtBP binding, 1536-well; hits give low values; control for the full effect not named in the record; in the data active means activity change below about -65%; inconclusive means about -30% to -65%; inactive means above about -30%; note: % is set by controls: 0 for no effect and ±100 for the full control effect
#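 AlphaScreen with 125 nM GST-E1A and 125 nM His-CtBP (5X stocks) in Tris pH 8.0, 300 mM NaCl, BSA, Tween 20, TCEP. Compounds preincubated 2 h at 37 deg C, then glutathione donor/nickel acceptor beads added for 1 h at 37 deg C in dark.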
# ClpP mod – qHTS Assay for Activators of ClpP; ATP-dependent Clp protease proteolytic subunit (Bacillus subtilis (strain 168)), P80244; purified B. subtilis ClpP, FRET peptide cleavage, 20 min; Potency, µM (doses to about 57.5 µM), inactives show at the highest dose activity change, negative = active; 1.9% of 340,000 active; AID 651965, 2013; active = well fitted falling curve with a large enough effect; inconclusive = small, poorly fitted or top-dose-only effect; inactive = no such curve, though single readings can be large or run the other way; note: potency is the fitted concentration of half-maximal effect; the source files actives as falling curves though it sought activators and does not explain the sign; nearly all actives have a fitted effect of over 65% in size; many hits overshoot -100%
# Target sequence (P80244 whole entry, looked up): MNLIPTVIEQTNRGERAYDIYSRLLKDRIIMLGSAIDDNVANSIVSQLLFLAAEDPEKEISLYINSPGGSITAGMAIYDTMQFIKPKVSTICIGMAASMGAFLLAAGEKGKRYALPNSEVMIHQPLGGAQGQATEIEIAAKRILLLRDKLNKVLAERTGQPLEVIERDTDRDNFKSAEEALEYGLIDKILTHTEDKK
#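 ClpP 10 microg/mL final, pH 8 Tris/KCl buffer with BSA, glycerol, Tween-20; compound pinned in; FRET-FV substrate; RT 20 min; Ex320/Em430; ΔFRET vs ADEP 5.8 microM, DMSO, no enzyme.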
# The depositor's hits bear a star; ? = inconclusive.
# The line under a structure holds: CtBP-E1A blk	ClpP mod
O=C(Nc1cccc(S(=O)(=O)N2CCCC2)c1)[C@@H]1O[C@H](CO)[C@H](O)[C@H](O)[C@H]1O
  28	-5.3%
CC1(C(=O)Nc2ccc3[nH]ncc3c2)CCN1C(=O)Cc1ccc(-c2ccccc2)cc1 (stereo unspecified)
  -23	-3.8%
O=C(Nc1cccnc1)C1Cc2c(-c3ccccc3Oc3ccccc3)ccnc2O1 (stereo unspecified)
  -2	-4.8%
Cc1ccc(S(=O)(=O)N2[C@H](CC(=O)OCc3ccccc3)OC[C@@H]2C(C)C)cc1
  18	-0.8%
CC(C)C1CC2=C(C(=O)OC(C)(C)O2)C(c2ccc(Cl)cc2)O1 (stereo unspecified)
  11	0.1%
CC1(Cc2ccc3c(c2)OCO3)C(=O)Nc2ccc(-c3cccc(C(F)(F)F)c3)cc21 (stereo unspecified)
  6	1.2%
CC1=C(C(=O)N(C(C)C)C(C)C)CC(CC(=O)NCc2ccco2)C(=O)N1Cc1ccccc1 (stereo unspecified)
  2	-1.6%
CC(C)Cc1ccc(-c2cc3nc(NCC4CC4)ccn3n2)cc1
  4	4.5%
COC(=O)c1ccc2nc(-c3ccccc3)c(Cc3ccccc3C(F)(F)F)n2c1
  0	-2.9%
COC(=O)c1ccc2nc(-c3ccc(C)cc3)c(CC3CCCCC3)n2c1
  5	-14%
COc1cc(C(=O)N2CCCC(c3cc(C(=O)NCc4ccccc4)no3)C2)cc(OC)c1C (stereo unspecified)
  -8	-0.9%
CCc1nc2c(OCCC3CCCCC3)cccn2c1N(C)C(=O)c1cccs1
  -25	-2.3%
CNC(C)C(=O)NC(C(=O)NC(C(=O)Nc1cccc2ccccc12)C(C)C)C(C)C (stereo unspecified)
  -16	?
Cc1ccc(S(=O)(=O)NC(=O)C2(C)CCN2C(=O)CC2CCCCC2)nc1 (stereo unspecified)
  -15	-3.3%
CCN(CC)c1ncnc2c1ncn2[C@H]1CN(Cc2cccs2)C[C@@H](CO)O1
  1	2.0%
CC(=O)NCCNC(=O)C1Cc2c(-c3ccccc3Oc3ccccc3)ccnc2O1 (stereo unspecified)
  0	-3.2%
COc1ccc(C(C(=O)Nc2ccc(F)cc2)N2CCN(CC(=O)N3CCCC3)CC2)cc1 (stereo unspecified)
  -14	-1.2%
O=C(NNC(=O)c1csc(-c2ccccc2)n1)c1ccccc1
  -2	1.3%
COc1ccccc1N(C)c1cc2c(c3c1ccn3C)C1CCC2C1 (stereo unspecified)
  ?	32µM*
COC(=O)C[C@H]1C=C[C@@H](NC(=O)c2ccncc2)[C@@H](CO)O1
  2	-1.2%

# 3 entries already listed, arranged by SMILES length, rising:
# The line under a structure holds: CtBP-E1A blk	ClpP mod
CCc1nc2c(OCCC3CCCCC3)cccn2c1N(C)C(=O)c1cccs1
  -25	-2.3%
COC(=O)c1ccc2nc(-c3ccccc3)c(Cc3ccccc3C(F)(F)F)n2c1
  0	-2.9%
CC1(Cc2ccc3c(c2)OCO3)C(=O)Nc2ccc(-c3cccc(C(F)(F)F)c3)cc21 (stereo unspecified)
  6	1.2%

# Among those listed so far, these contain a CF3 group.
# The line under a structure holds: CtBP-E1A blk	ClpP mod
CC1(Cc2ccc3c(c2)OCO3)C(=O)Nc2ccc(-c3cccc(C(F)(F)F)c3)cc21 (stereo unspecified)
  6	1.2%
COC(=O)c1ccc2nc(-c3ccccc3)c(Cc3ccccc3C(F)(F)F)n2c1
  0	-2.9%

# Other records follow:
# The line under a structure holds: CtBP-E1A blk	ClpP mod
COc1ccc(C(C)(NC(C)=O)c2nc(-c3cccc(F)c3)cs2)cc1 (stereo unspecified)
  8	2.7%
COc1ccc(-c2noc([C@@H]3O[C@H](CO)[C@H](O)[C@H](O)[C@H]3O)n2)cc1OC
  -2	-0.7%
Cn1ccc2c(-c3cccc(C=O)c3)cc3c(c21)C1CCC3O1 (stereo unspecified)
  6	4.4%
CC1(C(=O)NS(=O)(=O)Cc2ccccc2C(F)(F)F)CCN1C(=O)c1ccco1 (stereo unspecified)
  0	-0.2%
COc1ccc(C(C)(NC(C)=O)c2nc(-c3ccc(F)c(Cl)c3)cs2)cc1 (stereo unspecified)
  -23	-3.5%
CCc1nc2c(OC)cccn2c1N(C)C(=O)c1ccccc1F
  0	-1.2%
Cc1nc(CN2C(=O)C3(CCC3)ON=C2c2cccc(Cl)c2)cs1
  7	0.2%
Cc1c(Br)cccc1NC(=O)C1(C)CCN1Cc1ccc(OC(C)C)cc1 (stereo unspecified)
  11	0.0%
O=C(Nc1ccc2c(c1)OCCO2)C1c2ccccc2OCC(=O)N1CCCN1CCOCC1 (stereo unspecified)
  3	-2.8%
O=C(/C=C/[C@H]1O[C@@H](n2ccc(=O)[nH]c2=O)[C@H](O)[C@@H]1O)NCCc1c[nH]c2ccccc12
  4	-3.3%
Cc1cc(C)n2c(Nc3ccc4c(c3)OCCO4)c(-c3cc4ccccc4o3)nc2n1
  -20	-11%
CCOC(=O)[C@]12CCCC=C1N(Cc1ccc3c(c1)OCO3)C(=O)[C@H](CC(=O)NCC1CCCCC1)C2
  -3	0.6%
Cc1cccc(C2CC(c3ccccc3)=NN2c2ccc(S(N)(=O)=O)cc2)c1 (stereo unspecified)
  28	4.9%
OC(c1ccccc1)(c1nc(-c2cccc(C(F)(F)F)c2)cs1)C(F)(F)F (stereo unspecified)
  15	-0.8%
COc1cccc(CNC(=O)[C@@H]2CCCN2C(=O)[C@H]2CCCCN2C(=O)c2cccs2)c1
  7	1.3%
Cc1ccc(OCCNC(=O)[C@H]2O[C@@H](n3ccc(=O)[nH]c3=O)[C@H](O)[C@@H]2O)cc1C
  6	0.5%
O=C(CC[C@H]1O[C@@H](n2cnc3c(NC(=O)c4ccccc4)ncnc32)[C@H](O)[C@@H]1O)NCc1cccc2ccccc12
  -2	0.9%
Cn1c(=O)c2cc(NC(=O)Nc3cccnc3)ccc2n1Cc1cccc(C(F)(F)F)c1
  -11	4.9%
CC(C)C[C@H]1COc2cccc(N3CCN(Cc4ccccc4F)CC3)c2S(=O)(=O)N1
  -14	-4.4%
COc1ccc(CCCNC(=O)C2Cc3c(-c4cccc(C(C)=O)c4)ccnc3O2)cc1 (stereo unspecified)
  -1	1.8%
CCNC(=O)C1(C)CCN(Cc2ccc(C(F)(F)F)cc2)C1 (stereo unspecified)
  4	1.0%
CC(C)NC(=O)N(C)C[C@@H]1OCCCC[C@@H](C)Oc2ccc(NC(=O)Nc3ccc(F)cc3)cc2C(=O)N([C@H](C)CO)C[C@@H]1C
  -6	-5.1%
COC(=O)[C@@H](Cc1ccccc1)NC(=O)/C=C/[C@H]1O[C@@H](n2cnc3c(NC(=O)c4ccccc4)ncnc32)[C@H](O)[C@@H]1O
  2	-2.8%
CC(=O)Nc1ccc(NC(=O)c2ccccc2Br)cc1
  4	1.8%
CC1=C(C(=O)N(C(C)C)C(C)C)CC(CC(=O)NCCN2CCOCC2)C(=O)N1CCCN1CCCC1=O (stereo unspecified)
  -15	-4.0%
CC(C)Nc1nc(-c2ccccc2F)c2sc(-c3ccccc3)cc2n1
  26	?
OC(c1ccccc1)c1ncc(-c2ccccc2F)[nH]1 (stereo unspecified)
  1	-0.7%
CN(C)CCNC(=O)c1cccc(-c2cccc3nccn23)c1
  -22	3.3%
C[C@@H]1COc2cc(N(C)CCO)ccc2S(=O)(=O)N1
  -2	-3.5%
C[C@H](CO)N1C[C@H](C)[C@@H](CN(C)C(=O)c2ccc(N3CCN(C)CC3)cc2)OCc2cnnn2CCCC1=O
  6	-4.0%
O=C(NC(c1ccc(-c2ccccc2)cc1)c1cnccn1)C1CCN(CCN2C(=O)c3ccccc3C2=O)CC1 (stereo unspecified)
  1	-2.7%
COCCNC(=O)C1CCCN(C(=O)c2ccc(F)c(C)c2)CC1 (stereo unspecified)
  -3	0.4%
Cc1ccc(-c2cnc(C(O)c3ccc(Cl)c(Cl)c3)[nH]2)cc1 (stereo unspecified)
  -12	3.1%
CCc1ccccc1Oc1nc(NCCOC)nc2cc(-c3ccccc3)sc12
  9	22µM*
COc1cc(-c2cc(NC=O)c3ncc(-c4cccc(C(=O)N(C)C)c4)n3c2)cc(OC)c1OC
  -16	-18%
C[C@H](NC(=O)[C@@H]1CCCN1C(=O)[C@@H]1CCCN1C(=O)c1cccs1)c1ccccc1
  0	1.0%
COc1cccc(-c2cnc3c(NC=O)cc(-c4ccc(OC)cc4OC)cn23)c1
  -22	-1.0%
CC(=O)N1CCc2cc(NC(=O)C3(C)CCN3Cc3ccc(C(C)C)cc3)ccc21 (stereo unspecified)
  -4	2.2%
Clc1ccc(-c2nc3c4ccccc4ccn3c2Cc2ccsc2)cc1
  -2	?
CN(Cc1ccc(Cl)cc1)C(CCc1ccccc1)C(=O)NC1CCCCC1 (stereo unspecified)
  12	-0.3%
COCC(=O)N[C@H]1CC[C@@H](CC(=O)OC)O[C@@H]1CO
  -4	-2.8%
Cc1ccccc1S(=O)(=O)NCC[C@@H]1CC[C@@H](NC(=O)C2CCCC2)[C@@H](CO)O1
  -1	-0.3%
CC(C)NC(=O)C1(C)CN(S(C)(=O)=O)CC(=O)N1C1CCCCCC1 (stereo unspecified)
  -10	-1.7%
Cc1cc(C)c(CN2CCN(C(=O)CC[C@H]3O[C@@H](n4cnc5c(NC(=O)c6ccccc6)ncnc54)[C@H](O)[C@@H]3O)CC2)c(C)c1
  -11	2.3%
COC(=O)[C@@]12C[C@@H](CC(=O)N3CCN(C(=O)C4CC4)CC3)C(=O)N(Cc3cccc4ccccc34)C1=CCC(C)(C)C2
  0	-1.4%
CN(C)CCNC(=O)c1cccc(-c2cc(NC=O)c3ncc(-c4cccc(C(F)(F)F)c4)n3c2)c1
  -5	-4.9%
Cc1cc(C)c(S(=O)(=O)N2C[C@H]3CON(C)[C@H]3C[C@H]2c2ccc(N3CCCCC3)cc2)c(C)c1
  ?	1.0%
CCCNC(=O)C1(C)CCCN(Cc2ccc3c(c2)OCO3)C1 (stereo unspecified)
  1	-1.2%
CC(C)N1CCC1(C)C(=O)Nc1cccc(C#N)c1 (stereo unspecified)
  1	1.0%
Cc1ccc(S(=O)(=O)N2[C@H](CC(=O)OCc3ccccc3)OC[C@@H]2C)cc1
  2	1.8%
CSc1ccccc1-c1cnc(NC(C)=O)cn1
  -9	-1.8%
O=NN(CCCl)C(=O)NCC1=C[N+](=O)CC=C1
  6	-0.7%
CCOc1ccc(CCN2C(=S)N([C@@H](Cc3ccccc3)CN3CCC[C@@H]3CN3C(=S)NC[C@@H]3Cc3ccc(O)cc3)C[C@@H]2CC(C)C)cc1
  -5	0.5%
COc1cc(NC(=O)Nc2nnc([C@H]3C[C@H](O)[C@@H](CO)O3)s2)cc(OC)c1OC
  -5	-0.2%
CCCC(=O)N1CCC1(C)C(=O)Nc1ccc2nccnc2c1 (stereo unspecified)
  1	4.1%
CCOC(=O)[C@]12CCCC=C1N(Cc1cccc3ccccc13)C(=O)[C@H](CC(=O)NCc1cccc(C(F)(F)F)c1)C2
  -3	-5.8%
CCCCn1nnnc1C1(C)CCC(=O)N1CC(F)(F)F (stereo unspecified)
  2	-1.2%
CCNC(=O)C1CCCN(C(=O)c2c(-c3ccccc3)noc2C)CC1 (stereo unspecified)
  8	-1.1%
COc1cc(F)ccc1-c1csc(C(NC(C)=O)c2ccccc2)n1 (stereo unspecified)
  2	1.5%
CCOC(=O)C1=CCN(S(=O)(=O)c2cccc(Cl)c2)C1c1ccccc1 (stereo unspecified)
  -22	-6.9%

# Next entries.
# The line under a structure holds: CtBP-E1A blk	ClpP mod
COC(=O)C1(C(=O)OC)C[C@H](/C=C/c2ccccc2)N(Cc2ccccc2OC)[C@@H]1c1ccccc1
  -2	-2.4%
COC1=CC(=O)OC(c2ccc(C(F)(F)F)cc2)C1 (stereo unspecified)
  8	2.2%
COc1cc2c(cc1OCc1ccccc1)/C(=C/C(=O)OCc1ccccc1)OC2
  -18	-3.0%
CCN(CC)c1c(C)nc2ccc(C(=O)N3CCN(C(=O)c4ccco4)CC3)cn12
  19	1.7%
N#Cc1cccc(-c2csc(C(O)c3ccc(F)cc3)n2)c1 (stereo unspecified)
  2	-2.3%
CC(=O)c1cccc(-c2ccnc3c2CC(C(=O)Nc2cccnc2)O3)c1 (stereo unspecified)
  0	0.7%
O=C(NCc1ccccc1)c1cc(C2CCCN(C(=O)C3CCCCC3)C2)on1 (stereo unspecified)
  2	-0.4%
Cc1cccc(C)c1-n1nnnc1C1c2ccccc2C(=O)N1CCC(C)C (stereo unspecified)
  3	-2.6%
O=C(NCc1ccco1)C1Cc2c(-c3ccccc3Oc3ccccc3)ccnc2O1 (stereo unspecified)
  -13	-6.7%
CC(C)(C)n1nnnc1C(c1ccccc1)N1CCN(c2ccc(F)cc2)CC1 (stereo unspecified)
  1	-2.4%

# Record cards, from the list above. Order of screens: CtBP-E1A blk | ClpP mod
# Shown for O=C(NCc1ccco1)C1Cc2c(-c3ccccc3Oc3ccccc3)ccnc2O1 (stereo unspecified) : -13 | -6.7%
# Shown for O=C(NCc1ccccc1)c1cc(C2CCCN(C(=O)C3CCCCC3)C2)on1 (stereo unspecified) : 2 | -0.4%

# Screening data deposited in PubChem by National Center for Advancing Translational Sciences (NCATS).

# This is a subset (hit frequency here may not be typical).
